Vif A3G: HIV-1 Vif–A3G interaction blockers – biochemical, TR-FRET, GST-Vif 1-94, biotin-A3G peptide, dose response retest, primary screen (AID 1117319) | inhibition, %, or IC50 in µM where a hit was titrated | TR-FRET GST-Vif / biotin-A3G peptide binding; higher % means a stronger effect; test concentration not given here; strong numbers were not always called active | actives 0.57% (n = 260,000);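 active means above the screen mean plus three standard deviations and confirmed in dose response; inconclusive means results disagree or hit not tested in dose response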;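 further: Vif residues 1-94 fused to GST binding biotinylated APOBEC3G peptide 110-148; 0% = full assay without inhibitor and 100% = GST in place of GST-Vif; retest series ran down from 100 µM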
Calb FLC: C. albicans growth modulation with fluconazole. AID 1979. growth inhibition, % (concentration not given with the values). actives 0.57% (n = 300,000). C. albicans CaCi-2 (fluconazole-resistant clinical isolate) + fluconazole, Alamar Blue growth, 48 h;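 active means most replicates above 75%; inconclusive means exactly half above 75%; inactive means most below 75%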;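 further: all wells also contain fluconazole at 8 µg/ml as a sub-toxic cotreatment; 0% = median of DMSO wells and 100% = median of geldanamycin control wells; wells of about 8 µL received 7.5 nL stock; the first replicate is given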
AF4-AF9 inh: inhibitors of human MLL-AF4/AF9 interaction. AlphaScreen, biotin-AF4 peptide binding to FLAG-AF9. P42568. AID 651704. inhibition, % at 10 µM. actives 0.47% (n = 350,000);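 active means every replicate reaching a set inhibition limit, whatever the replicate mean, cut at about 25% in these data; inconclusive means mean inhibition reaches that limit but some replicates miss it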;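 further: 0% = plate neutral control median and 100% = total signal loss; the record names both 10 and 1 µM as test concentration; the first replicate is given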
Target sequence (P42568 whole entry, looked up): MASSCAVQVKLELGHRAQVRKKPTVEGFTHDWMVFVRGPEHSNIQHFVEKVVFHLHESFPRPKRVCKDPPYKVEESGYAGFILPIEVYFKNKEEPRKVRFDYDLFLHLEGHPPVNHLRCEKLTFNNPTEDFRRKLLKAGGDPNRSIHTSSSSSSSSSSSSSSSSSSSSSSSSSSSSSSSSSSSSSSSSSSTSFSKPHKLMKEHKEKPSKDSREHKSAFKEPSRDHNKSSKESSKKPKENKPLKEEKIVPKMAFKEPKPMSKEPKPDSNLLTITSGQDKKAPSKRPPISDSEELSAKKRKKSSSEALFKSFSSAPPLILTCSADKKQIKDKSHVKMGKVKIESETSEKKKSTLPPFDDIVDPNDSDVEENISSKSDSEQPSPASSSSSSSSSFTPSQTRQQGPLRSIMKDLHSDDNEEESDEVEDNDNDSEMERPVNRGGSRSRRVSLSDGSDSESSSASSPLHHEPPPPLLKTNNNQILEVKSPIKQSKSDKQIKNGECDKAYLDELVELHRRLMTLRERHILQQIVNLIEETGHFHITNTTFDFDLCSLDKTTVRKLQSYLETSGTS
RanGTP-Imp inh: inhibitors of RanGTP-importin-beta interaction, primary screen, biochemical, FRET, CFP-Ran, YFP-importin-beta, homogeneous; actives 1.1% (n = 300,000); AID 2216; inhibition, % (no concentration beside the values); cell-free CFP-Ran/YFP-importin-beta FRET ratio;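 active means most replicates above 15%; inconclusive means exactly half above 15%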;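 further: 0% = DMSO wells and 100% = Ran loaded with GDP instead of GTP; wells of about 40 µL received 100 nL stock; the first replicate is given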
Ecoli rRNA inh: selective bacterial rRNA inhibition in E. coli; E. coli WT GFP vs humanized-ribosome RFP mutants, fluorescence, 24 h; hits give low values; DMSO median 0, no signal -100; GFP signal change (wild-type ribosome), % (test concentration not listed); actives 1.6% (n = 350,000); AID 720706;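 active means significant combined selectivity score with lowered wild-type GFP, culture density cut under 30%, mutant RFP and density less affected; inactive means any of these conditions unmet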; further: one replicate is shown; some compounds called inactive have numbers as strong as hits
Beta cell apopt: beta cell apoptosis inhibition | AID 435005 | actives 0.8% (n = 300,000) | protection from apoptosis, % (test concentration not listed) | INS-1E cytokine-induced death, ATP luminescence, 48 h; percent of positive-control rescue, neutral wells zero;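 active means all replicates at 75% or more, or half of them and the mean; inconclusive means half reach 75% but not the mean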;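 further: 0% = cytokine-treated negative control wells and 100% = positive control rescue; higher means more ATP so stronger rescue from cytokine killing; wells of about 40 µL received 100 nL stock; the first replicate is given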
T cruzi repl: T. cruzi replication inhibition; T. cruzi beta-gal in NIH3T3, luminescence, 90 h; inhibition, % (no concentration beside the values); actives 1.4% (n = 300,000);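 active means mean inhibition across valid replicates above about 55%, limit read from the data; inconclusive means mean below that limit but half or more replicates reach it; inactive means mean below it, under half of replicates reach it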;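 further: signal also drops with host cell toxicity which is not excluded here; 0% = plate median of DMSO wells and 100% = zero luminescence signal; higher percent means less beta-gal luminescence so fewer parasites; stock transfer was 50 nL into about 50 µL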
Bfl-1 A1 inh: inhibitors of the anti-apoptotic protein A1, read as caspase activation; MEF A1-2A-BIM cells, Caspase-Glo 3/7 luminescence, 3 h; percent of clofoctol response, vehicle zero; caspase activation, % (concentration not given with the values); actives 0.066% (n = 330,000);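 active means over half of replicate activation scores above 10%, or exactly half above 10 with the replicate mean above 10; inconclusive means replicate mean below 10 yet half the replicates above 10; inactive means over half of replicates below 10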;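 further: wells of about 30 µL received 50 nL stock; many hits fall short of the cut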
Ecoli rRNA inh OD600: further read-out of Ecoli rRNA inh, marked with its call; OD600 change, %; measured here: OD600 growth;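 optical density of the mix in the first replicate; 0 = DMSO median and -100 = no signal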
Ecoli rRNA inh RFP: second read-out of Ecoli rRNA inh, no call of its own (marks repeat the call); RFP signal change, %; measured here: RFP humanized mutant strains;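 first replicate; 0 = DMSO median and -100 = no signal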
Starred values were filed as active, the others as inactive; u = inconclusive; x = not tested or not shown; & = joins results of further samples. Some of the compounds tested. The share of hits here may be higher or lower than overall.

SMILES	Vif A3G	Calb FLC	AF4-AF9 inh	RanGTP-Imp inh	Ecoli rRNA inh	Ecoli rRNA inh OD600	Ecoli rRNA inh RFP	Beta cell apopt	T cruzi repl	Bfl-1 A1 inh
CN(CC(=O)Nc1ccc(C#N)cc1)Cc1ccc(Cl)c(Cl)c1	12%	8	x	u	x	x	x	-5	1	0.2
O=C(NC1CCCc2ccccc21)c1ccc(F)cc1F (centres undefined)	x	-4	u	-7.8	-1	2	-1.8	0	9	0.1
CCOC(=O)c1c(-c2ccc(C)o2)csc1NC(=O)COC(=O)c1cccs1	8%	-4	x	u	x	x	x	-1	21	-0.4
CN(CC(=O)Nc1ccc(Cl)cc1)C(=O)CNC(=O)Cc1cccc2ccccc12	-4%	x	2.6	x	-23	-54	-11	-5	x	-1.4
CCCCC(=O)NCc1ccc(Cl)cc1	x	-5	x	-1.2	x	x	x	-8	10	0.0
O=C(NCCCN1CCCCC1)c1ccc2c(c1)ncn2C1CCCC1	0%	32	0.1	2.8	5	6	0.8	-2	-1	1.2
CNc1nc(Nc2ccc(C)c(Cl)c2)nc(N)c1[N+](=O)[O-]	x	3	x	u	x	x	x	21	19	-7.0
Cc1ccc(C(=O)OC2=CC(=O)CC(C)(C)C2)cc1	4%	-10	x	-4.5	x	x	x	-8	11	0.8
CC(=O)Nc1ccc(S(=O)(=O)NCCC(=O)OCC(=O)N2CCN(C(=O)c3ccco3)CC2)cc1	x	19	0.4	1.5	6	9	2.3	-9	-4	-0.8
O=C(Nc1ccccc1O)c1ccc(NS(=O)(=O)c2cccc3cccnc23)cc1	-2%	-1	1.1	-4.0	-20	-36	-2.3	-4	-16	0.7
Cc1cccc(NC(=O)CN2CCCCCC2)c1	x	-8	0.5	1.7	12	10	-4.0	-2	-1	1.3
CC(=O)c1c(C(C)=O)c(C)n(-c2ccc(O)cc2)c1C	8%	9	x	0.1	x	x	x	-5	-10	1.5
Cc1nn(C)c(C(=O)N2CCc3ccccc32)c1Br	6%	-6	x	-5.4	x	x	x	-1	-23	-0.5
CCC1CCc2sc(C(=O)O)cc2C1 (centres undefined)	1%	-4	x	2.9	x	x	x	x	9	0.3
Cc1cc(C)c2c(N)c(C(=O)C(C)(C)C)sc2n1	x	1	-4.2	1.2	12	12	2.8	-3	43	1.5

Compound profiles, as listed above.
`CC(=O)Nc1ccc(S(=O)(=O)NCCC(=O)OCC(=O)N2CCN(C(=O)c3ccco3)CC2)cc1` as listed: Vif A3G = x; Calb FLC = 19; AF4-AF9 inh = 0.4; RanGTP-Imp inh = 1.5; Ecoli rRNA inh = 6; Ecoli rRNA inh OD600 = 9; Ecoli rRNA inh RFP = 2.3; Beta cell apopt = -9; T cruzi repl = -4; Bfl-1 A1 inh = -0.8
`CN(CC(=O)Nc1ccc(Cl)cc1)C(=O)CNC(=O)Cc1cccc2ccccc12` as listed: Vif A3G = -4%; Calb FLC = x; AF4-AF9 inh = 2.6; RanGTP-Imp inh = x; Ecoli rRNA inh = -23; Ecoli rRNA inh OD600 = -54; Ecoli rRNA inh RFP = -11; Beta cell apopt = -5; T cruzi repl = x; Bfl-1 A1 inh = -1.4

(more compounds)
SMILES	Vif A3G	Calb FLC	AF4-AF9 inh	RanGTP-Imp inh	Ecoli rRNA inh	Ecoli rRNA inh OD600	Ecoli rRNA inh RFP	Beta cell apopt	T cruzi repl	Bfl-1 A1 inh
COc1ccc(NC(=O)c2cnc3n(c2=O)CCS3)cc1OC	11%	-2	-0.3	-0.9	0	12	-1.3	x	-11	-0.8
COc1cccc(C2c3[nH]c4ccccc4c3CCN2C(=O)Cn2cncn2)c1OC (centres undefined)	-1%	24	3.6	0.4	-7	-12	-2.5	-1	-7	1.5
COCCNC(=O)c1nn2c(C(F)(F)F)cc(-c3ccccc3)nc2c1Cl	4%	2	-6.6	2.7	9	15	2.8	-2	4	0.3
COc1ccc(Oc2nccc(-c3ccc(Cl)cc3)n2)cc1	-5%	u	x	-2.1	x	x	x	0	34	-0.2
Cn1c(Cc2csc(N)n2)nnc1SCC(=O)NCc1ccccc1	32%	-8	5.1	0.9	12	9	9.5	-4	1	-0.1
COc1ccc(C2NC(=O)C(C#N)=C(S)N2c2ccc(C)cc2)cc1OC (centres undefined)	x	16	-6.2	-4.5	-7	5	1.3	-6	-7	-5.6
Cc1cc(S(=O)(=O)NCC(c2ccccc2)c2ccccc2)ccc1-n1cnnn1	15%	45	x	1.0	x	x	x	7	5	1.8
CC1CC(C)CN(C(=O)CSc2nnc(N)s2)C1 (centres undefined)	x	3	-2.2	u	-1	-4	-1.7	3	-11	1.5
CC(=O)NNC(=O)CCn1c2c(c3ccccc31)CCCC2	-6%	7	5.4	-5.1	16	3	1.5	x	4	0.6
Cc1noc(C)c1NC(=O)N(C)C[C@H]1Oc2c(NC(=O)c3ccncc3)cccc2C(=O)N([C@H](C)CO)C[C@@H]1C	x	x	-1.1&-0.8	x	4&3	3&5	-3.1&21	5	x	0.7
Cc1csc2nc(CSc3nncn3-c3ccccc3)c(Br)n12	6%	-4	x	1.2	x	x	x	-4	5	0.1
O=C(O)CCCCNS(=O)(=O)c1ccc(Cl)c(C(F)(F)F)c1	-2%	0	x	1.6	x	x	x	-8	-16	0.4
COC(=O)CCC(=O)NNC(=O)Cc1ccccc1	6%	-1	-6.8	1.4	8	3	-4.4	0	-22	1.0
O=C(Nc1ccc(S(=O)(=O)N2CCOCC2)cc1)c1c(F)cccc1F	x	-14	0.4	4.4	1	4	-1.0	x	-21	0.4
COc1ccc(/C=C/CN2CCCC(CO)(Cc3cccc(Cl)c3)C2)cc1 (centres undefined)	x	12	5.4	2.7	-47*	-36*	-4.8*	-1	47	1.3
Cc1ccc(NC(=O)Cn2nc(C(=O)Nc3ccc(C)cc3)ccc2=O)cc1	x	18	-1.4	0.3	1	24	2.5	-3	-5	-1.1
COC(=O)C1=CN(C2CCCCC2)C=C(C(=O)OC)C1c1ccc2c(c1)OCO2	x	0	-31	2.8	19	19	0.1	8	62*	-0.4
CN(CC(=O)Nc1ccccc1Cl)C(=O)COC(=O)CCN1C(=O)C2CC=CCC2C1=O (centres undefined)	2%	-6	-1.2	x	11	16	1.0	-3	-6	0.8
CCOC(=O)Cc1csc(SCC(=O)Nc2sc3c(c2C(N)=O)CCC3)n1	16%&32%	-3	x	u	x	x	x	1	-4	0.4
Cc1nn(Cc2ccc(Cl)cc2)c(Cl)c1/C=N/NC(=O)CNc1ccccc1F	10%	-3	x	-0.1	x	x	x	-10	44	-1.1
COC(=O)C1=C(C)N(Cc2ccco2)C(=O)N[C@@H]1c1ccc(Br)cc1	x	7	-1.2	-1.6	13	17	12	-6	-9	1.6
O=C(CSc1ncnc2scc(-c3ccccc3)c12)NC1CCS(=O)(=O)C1 (centres undefined)	3%	-23	-8.3	1.9	-11	-16	0.1	-6	-7	0.2
COc1ccc(S(=O)(=O)Nc2cc3c4c(oc3c3ccccc23)CCCC4=O)cc1	-23%	11	x	2.3	x	x	x	6	-20	-0.2
COCCN(CCOC)C(=O)c1ccc(NS(=O)(=O)c2ccc3[nH]c(=O)[nH]c3c2)cc1	2%	14	2.3	2.9	7	6	-1.2	-2	-16	0.0
C[C@@]12C(=O)N(c3ccc(C(F)(F)F)cc3)C(=O)N1[C@@H]1c3ccccc3OC[C@@H]1[C@H]2c1ccccc1	x	-3	x	1.8	x	x	x	20	31	-0.1
O=C(CCc1n[nH]c(=O)[nH]c1=O)Nc1cccc([N+](=O)[O-])c1	x	1	-8.5	0.6	x	x	x	-7	-1	0.9
CCCCN(C)CCCNC(=O)CCn1nc(-c2ccccc2)ccc1=O	0%	-3	-5.0	1.1	18	5	3.0	-8	12	-0.6
Cc1ccc(C(=O)N2CCN(C(=O)CN3CCCC3)C2)cc1	6%	1	x	-0.7	x	x	x	3	4	-0.7
CN1CCN(Cc2oc(CO)cc(=O)c2O)CC1	7%	-5	x	-3.6	x	x	x	-6	-1	0.5
Cc1ccc(C)c(N2CCN(CCCNC(=O)Cn3cc4c(n3)CCC(C)C4)CC2)c1 (centres undefined)	1%	-22	1.1	-1.0	-5	-14	2.9	2	21	-0.8
O=c1[nH]nc2c3ccccc3cnn12	-1%	-1	x	6.6	x	x	x	-6	-17	0.0
O=C(COC(=O)c1cccc(S(=O)(=O)N2CCc3ccccc32)c1)Nc1ncc(Cl)cc1Cl	11%	-3	-5.2	3.0	6	-4	-1.7	1	1	-0.4
CCCCC(=O)NC(NC(=O)CCCC)c1ccc(OCCC)c(OC)c1	6%	-10	x	2.6	x	x	x	-1	15	-0.8
C=CCNC(=O)CC(=O)N/N=C/c1ccccc1F	15%	22	x	1.3	x	x	x	-3	-32	0.2
Clc1ccc(CN2CCC(Cc3ccccc3)CC2)cc1	x	-16	-1.7	0.9	x	x	x	-4	-2	1.1
CCOc1ccc(CC2c3cc(OCC)c(OCC)cc3CCN2C(=O)c2cc(OC)c(OC)c(OC)c2)cc1OCC (centres undefined)	2%	5	x	-2.8	x	x	x	4	10	0.3
CNC[C@H](CC1CCCCC1)NC[C@H](CO)NCC1(c2ccccc2)CC1	x	-27	4.5	0.9	1	-3	6.0	6	7	-0.5
Cc1ccccc1NC(=O)c1cc2ccccc2o1	x	-3	0.6	u	0	11	-4.6	0	-1	-6.1
Cc1nc(-c2ccc(F)cc2)c(CC(=O)N(C)CC(=O)Nc2ccccc2Br)s1	0%	2	6.1	u	-4	-13	-0.2	2	1	-0.9
CCCCc1ccc(NC(=S)NCc2cccc(OC)c2)cc1	-5%	-8	5.9	4.0	-12	-21	17	0	56*	1.4
COC(=O)c1cc(NS(=O)(=O)c2ccc(NC(C)=O)cc2)cc(C(=O)OC)c1	-3%	14	x	5.0	x	x	x	-8	-10	-0.4
CC(C)(C)NC(=O)C1c2ccccc2Oc2ccccc21	x	-9	-30	6.1	7	12	-0.2	-3	-5	0.2
CCCn1c(C(C)Nc2nc(-c3cc(Cl)c(N)c(Cl)c3)cs2)nc2cc(Cl)c(N3CCCCC3)cc21 (centres undefined)	x	-1	-0.4	u	6	11	-1.0	-5	15	-0.9
O=C(Nc1ccccc1Cl)N1CCCN(c2nc(-c3ccccc3)ns2)CC1	4%	-4	-1.5	-0.2	-32	-28	0.4	8	7	0.4
CCc1ccccc1NC(=O)CSc1nc(C)c(C)o1	-5%	6	-0.3	1.4	2	-1	0.0	-3	-13	-0.7
CCOc1cc(S(=O)(=O)Nc2ccncc2)ccc1F	x	0	3.3	1.5	2	-6	0.8	-3	2	0.8

Assay outcomes deposited in PubChem BioAssay by several laboratories.
